MT1-MMP act inh: blockers of MT1-MMP proenzyme processing, primary screen, HT1080 RFP-PRO-GFP cells, GFP/RFP fluorescence | Matrix metalloproteinase-14 (Homo sapiens), P50281 | GFP/RFP ratio fluorescence, overnight; percent of plate control window, DMSO zero | GFP/RFP ratio change, % at 20 µM | 0.061% of 360,000 active;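 active = GFP/RFP ratio change of at least 30% with cell ATP level not reduced by more than half and red fluorescence within 50% of control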; also: strong numbers were not always called active
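Compound: 20 µM single dose, 1% DMSO / System: HT1080 RFP-PRO-GFP cells / Controls: DMSO and RFP-L50D-GFP cell wells / Read-out basis: GFP/RFP fluorescence ratio / Schedule: overnight compound exposure at 37 °C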
Env fusion inh: inhibitors of HIV-1 Env-driven cell-cell fusion, primary screen, HeLa-JRFL effector, CEM21 target cells, luciferase; 1.1% of 360,000 active; inhibition, % at 12.3 µM; AID 651610, 2012;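 active = mean replicate inhibition score of at least 50 and every replicate individually at or above 50; inconclusive = only one of the two criteria met; inactive = mean below 50 and not all replicates reaching 50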;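 also: 0% = plate neutral controls and 100% = maraviroc near 300 nM; one replicate is shown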
Yeast UUG start: modulators of yeast start codon fidelity, primary screen, whole organism, S. cerevisiae, single point, plate reader; S. cerevisiae UUG-firefly luciferase reporter, luminescence/redox ratio; 0.13% of 350,000 active; activity score, % at 18.7 µM;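 active = replicate mean at a twofold rise or more, about +100% in these data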;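 also: firefly luciferase made from a UUG start codon reports start codon fidelity; reporter light over untreated wells divided by growth signal over untreated wells; some hits fall short of that in this replicate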
Rce1 inhib: yeast Rce1p protease inhibitors, primary screen, biochemical, fluorescence, cell-free homogeneous; yeast membranes, quenched prenylated peptide cleavage fluorescence; calls only; AID 2563, 2010; CAAX prenyl protease 2 (Saccharomyces cerevisiae (strain ATCC 204508 / S288c)), Q03530; 0.27% of 290,000 active;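 active = fall in fluorescence gain of 50% or more versus controls, with final raw signal at or below 3038400; inconclusive = same 50% fall but final raw signal above 3038400; inactive = fall in fluorescence gain under 50%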;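 also: plate controls were neutral control wells for no effect and wells lacking membranes for full effect; tested at 10 µM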
eIF4H FP inh: human eIF4H binding inhibitors, primary screen, translation initiation inhibitor project, biochemical, uHTS, fluorescence polarization; Eukaryotic translation initiation factor 4H (Homo sapiens), Q15056; eIF4H fluorescence polarization binding assay; 0.94% of 290,000 active; inhibition, % at 35 µM;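 active = 50% or more with normal probe brightness, or confirmed in later tests; inconclusive = above 50% with abnormal brightness, or retests that disagree; inactive = below 50% or failed in later tests; about a fifth of its hits are not listed in these tables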;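 also: calls also rest on retests at 20 µM and on dose response follow-up; 0% = protein and probe with vehicle and 100% = probe without protein; strong numbers were not always called active; many hits fall short of the cut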
PABP polyA inh: PABP poly(A) RNA binding inhibitors, primary screen, biochemical, fluorescence polarization, uHTS. Polyadenylate-binding protein 1 (Homo sapiens), P11940. inhibition, % at 35 µM. 1% of 290,000 active;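 active = 50% or more with normal probe brightness, or confirmed in later tests; inconclusive = above 50% with abnormal brightness, or retests that disagree; inactive = below 50% or failed in later tests; about a fifth of its hits are not listed in these tables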;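 also: calls also rest on retests at 20 µM and on dose response follow-up; controls were probe without protein and protein plus probe with vehicle; some compounds called inactive have numbers as strong as hits; many hits fall short of the cut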
Target sequence (P11940 whole entry, looked up): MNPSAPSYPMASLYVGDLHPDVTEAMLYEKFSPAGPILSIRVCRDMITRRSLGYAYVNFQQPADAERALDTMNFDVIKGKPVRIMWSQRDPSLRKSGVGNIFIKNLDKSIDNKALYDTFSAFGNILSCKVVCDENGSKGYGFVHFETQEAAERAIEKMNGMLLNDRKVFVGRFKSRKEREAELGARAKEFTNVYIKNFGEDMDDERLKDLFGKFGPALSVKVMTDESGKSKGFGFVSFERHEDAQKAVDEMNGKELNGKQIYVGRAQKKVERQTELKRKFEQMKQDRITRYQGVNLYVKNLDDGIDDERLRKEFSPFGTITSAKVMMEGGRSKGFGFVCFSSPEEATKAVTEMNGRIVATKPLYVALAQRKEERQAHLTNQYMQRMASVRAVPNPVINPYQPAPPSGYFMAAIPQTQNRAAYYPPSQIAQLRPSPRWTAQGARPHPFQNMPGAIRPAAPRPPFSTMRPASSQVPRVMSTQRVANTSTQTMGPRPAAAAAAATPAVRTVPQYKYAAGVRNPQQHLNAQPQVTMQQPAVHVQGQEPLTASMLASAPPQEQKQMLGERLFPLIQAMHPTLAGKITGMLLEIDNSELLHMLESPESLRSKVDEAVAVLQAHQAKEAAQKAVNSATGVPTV
CSC inhib: cancer stem cell viability inhibitors, primary screen, luminescence. cancer stem cell-like cells viability. inhibition, % at 7.5 µM. 1.1% of 300,000 active;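 active = mean at 75% or more and at least half the replicates too; inconclusive = mean and replicates disagree; tested in HMLE shEcad cells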;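 also: 0% = median of negative and 100% = median of positive control wells; the first replicate is given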
MT1-MMP act inh RFP: also measured in MT1-MMP act inh; calls as there; RFP signal change, %; measured here: RFP expression control read;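 0 = vehicle wells; hits needed this value within 50% of zero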
Numbers without * were called inactive; i = inactive; u = inconclusive; x = not tested or not shown. The list is partial. The share of hits here may be higher or lower than overall.

SMILES	MT1-MMP act inh	MT1-MMP act inh RFP	Env fusion inh	Yeast UUG start	Rce1 inhib	eIF4H FP inh	PABP polyA inh	CSC inhib
O=c1[nH]c(-c2ccc3c(c2)OCO3)nc2c1sc(=S)n2-c1ccccc1	-2	-6	-10	x	i	14	-7	-7
CC(C)(C)OC(=O)C[C@H]1C/C=C\C[C@@H](CC(=O)N[C@H](CO)Cc2ccccc2)C(=O)NC[C@@H](c2ccccc2)OC1=O	1	-4	2	3	x	x	x	x
COc1cccc(/C=N/n2c(CO)nc3ccccc32)c1OC	2	-5	-100	8	i	-2	3	-12
CCC(O)c1c(-c2ccccc2)nn(C)c1Cl (stereo not given)	1	0	15	x	i	-7	3	1
COC(=O)CCC(=O)OC1(C)C(=O)C2=CN(CC3CC3)C(c3ccc(OC)cc3)=CC2=C(Br)C1=O (stereo not given)	30*	28*	x	-8	i	25	29	13
Cc1ccc(Nc2nc3ccccc3n3cnnc23)cc1Cl	-4	-6	-8	9	i	-1	-9	-9
O=C(c1ccc(F)cc1)N1CCC(C(=O)N(Cc2ccccc2)c2ccccc2)CC1	-4	0	x	0	x	x	x	-14
CCNS(=O)(=O)c1ccc(NS(C)(=O)=O)cc1	2	-2	-13	-8	i	2	3	-22
O=C1/C(=C/c2ccc3c(c2)OCO3)SC(=S)N1CCC(=O)N(CCO)c1ccccc1	25	47	-18	-17	x	x	x	x
COc1cc(C(=O)NC(=S)NNC(=O)[C@H]2C[C@@H]2c2ccccc2)cc(OC)c1OC	4	11	-16	-23	i	12	-5	6
CCOc1ccc(N2C(=O)CC(N3CCN(c4ccccc4OC)CC3)C2=O)cc1 (stereo not given)	4	5	22	-18	i	-4	12	2
CC(OC(=O)CNS(=O)(=O)/C=C/c1ccccc1)C(=O)Nc1ccc(S(=O)(=O)N2CCCC2)cc1 (stereo not given)	1	2	x	x	i	1	-4	-8
S=C(NCc1ccncc1)Nc1ccc(Cl)cc1	2	4	2	x	i	-11	-1	2
COc1ccc(CNC(=O)c2cc(S(=O)(=O)N3CCCCC3)ccc2Cl)cc1OC	8	-28	11	-1	x	x	x	-15
CCN1C(=O)[C@H]2[C@@H](c3ccc(-c4cccc(Cl)c4)c(OC)c3)N3CCCC[C@@]3(C(=O)OC)[C@H]2C1=O	-12	-16	42	-5	x	x	x	x
CCN(CC)CCNCc1cc(Cl)ccc1OCc1ccccc1F	4	0	5	-7	i	-8	-12	-13
Cc1ccc(S(=O)(=O)NC2CC2)cc1[N+](=O)[O-]	0	1	4	-21	i	3	0	-12
COc1ccc(/C=C/C(=O)NC(C)(C)C)cc1S(=O)(=O)N1CCOCC1	8	10	-50	-6	i	24	-2	-13
c1ccc(-c2nnc(-c3ccccn3)nn2)nc1	0	-1	-33	-42	i	x	x	6
CCOC(=O)C1CCN(c2cc3c(cc2NC(=O)c2ccc(F)cc2)n(C)c(=O)n3C)CC1	3	-8	-4	-7	i	2	16	-3
COc1ccc(C(=O)OCC(=O)N(C)C2CCS(=O)(=O)C2)cc1Br (stereo not given)	-3	1	x	-7	x	x	x	-10
COc1cccc(CNC(=O)C2Cc3cc(S(=O)(=O)N4CCCC4)ccc3N2C(C)=O)c1OC (stereo not given)	6	1	-9	-6	i	4	5	6
COc1cc2c(cc1OC)C(c1ccccc1O)N(C1CC(=O)N(c3ccccc3)C1=O)CC2 (stereo not given)	-7	2	-302	-10	x	1	4	0
COc1cccc(C2CC(c3cccs3)=NN2C(=O)CSc2nc3ccccc3o2)c1OC (stereo not given)	0	-3	31	x	i	2	-4	-2
N#CCC(=O)N/N=C/c1ccc(OS(=O)(=O)c2ccccc2)cc1	3	4	-78	8	i	-10	-1	x
COc1ccc(-c2cnnn2-c2ccc(NC(=O)/C=C/c3ccc(OC)c(OC)c3)cc2)cc1	4	-4	12	x	i	-6	2	2
O=C(CSc1ccccc1)Nc1nc2ccccc2[nH]1	-1	-7	-56	x	i	7	10	53
COc1ccc2c(c1)C1=NN(/C(C)=C\C(C)=O)C(c3ccccc3)C1CC2 (stereo not given)	-17	9	x	-6	i	2	-3	10
NC(=O)NC(=O)COC(=O)c1ccc2c(c1)C(=O)N(Cc1ccccc1)C2=O	0	0	-6	-11	i	-2	-5	19
CC(Cc1ccc(Cl)cc1)N1CCC(n2nccc2NC(=O)C2CCCC2)CC1 (stereo not given)	-6	0	4	-5	i	8	0	11
CC1Cc2ccccc2N1C(=O)C1CCCN(S(=O)(=O)c2cccc3cccnc23)C1 (stereo not given)	-2	-11	32	-3	x	2	-5	-2
Cc1cc2c(=O)n(Cc3ccco3)c(SCC(=O)NCc3ccco3)nc2s1	-6	1	23	-3	i	15	13	4
COc1ccc(C(=O)NC(C)CCCC(C)(C)O)cc1OC1CCN(C(C)=O)CC1 (stereo not given)	-4	-1	-13	2	i	-6	-4	x
Cc1nnc(SCC(=O)Nc2ncc(S(=O)(=O)c3ccc([N+](=O)[O-])cc3)s2)s1	1	-3	3	x	i	0	-2	-30
O=C(N/N=C/c1ccc2c(c1)OCO2)c1cccnc1	1	2	2	-9	i	5	-1	0
O=C(O)CCCSCC(=O)Nc1ccccc1	-2	5	-67	-6	i	14	4	-22
O=C(CSc1ccc(Cl)cc1)NC1CC1	2	3	3	-15	x	x	x	x
CN(Cc1ccccc1)C(=O)c1ccc(NC(=O)C2=CSCCO2)cc1	5	4	-18	5	i	-4	-1	15
CCCOC(=O)c1[nH]c2c(c1C)C(=O)CC(c1cc(OC)c(OC)c(OC)c1)C2 (stereo not given)	-2	-30	u	18	i	-5	-13	-4
CCCC(=O)Nc1ccc(NC(=O)c2cc3ccccc3o2)c(OC)c1	4	-1	-26	-12	i	0	5	-5
O=C(CCS(=O)(=O)c1cccc2nonc12)N1CC(=O)N(CCc2ccccc2)C(=O)C1	0	1	-3	-16	i	8	2	x
CCOC(=O)c1c(C)[nH]c(N=Nc2ccccc2Cl)c1C	1	2	-66	x	i	3	12	54
Cc1ccc(OCC(=O)OCC(=O)c2c(N)n(C)c(=O)n(C)c2=O)cc1C	3	6	x	8	i	-2	2	17
Cc1c(NC(=O)C(C)OC(=O)CCc2c[nH]c3ccccc23)c(=O)n(-c2ccccc2)n1C (stereo not given)	1	1	-1	-8	i	x	x	-2
O=C(NCCCn1ccnc1)C(=O)NCC1OCCN1S(=O)(=O)c1ccccc1 (stereo not given)	3	5	3	x	i	6	5	3
CSc1nc2ccc(NC(=O)c3ccco3)cc2s1	7	4	-31	x	i	-7	-4	21
Cc1ccc(C(=O)c2cn[nH]c2-c2ccccc2O)cc1	-1	-1	x	-7	i	4	10	-14
C=CCNC(=O)c1onc(CSc2ccc(F)c(F)c2)c1C(=O)NCC=C	5	-4	4	3	i	x	x	-27
CCCCNS(=O)(=O)c1ccc(NS(=O)(=O)c2c(C)cc(C)cc2C)cc1	0	-3	-21	x	i	0	-10	x
FC(F)(F)c1cc(-c2ccco2)nc2ncnn12	7	3	-1	-18	i	9	-5	-2

Further records.
SMILES	MT1-MMP act inh	MT1-MMP act inh RFP	Env fusion inh	Yeast UUG start	Rce1 inhib	eIF4H FP inh	PABP polyA inh	CSC inhib
CCC1(c2ccccc2)NC(=O)N(CC(=O)NC2CCCCCC2)C1=O (stereo not given)	-1	-1	-1	-28	x	x	x	-13
COc1ccc(-c2cc(-c3n[nH]c(=S)n3-c3cc(OC)ccc3OC)[nH]n2)cc1	9	-4	x	x	i	-2	-7	-9
Cc1ccn2c(Nc3ccccc3)c(-c3ccccn3)nc2c1	10	-16	66*	-38	i	4	-14	81*
Cc1nn(-c2ccccc2)c(C)c1NC(=O)COC(=O)CCOc1ccccc1	2	4	-1	-12	i	x	x	0
O=S(=O)(c1cccc2cccnc12)N1CCCc2ccccc21	-2	-1	11	-5	i	0	-3	-4
Cc1ccc(NC(=O)CCc2c(C)nn(-c3ccc(N4CCCCC4)nn3)c2C)cc1C	0	-3	-7	-15	i	-11	-12	5
C[C@H](CO)N1C[C@H](C)[C@@H](CN(C)Cc2ccc(Oc3ccccc3)cc2)Oc2c(NS(=O)(=O)c3cn(C)cn3)cccc2C1=O	4	-2	-2	-7	x	x	x	-7
COc1cc(C(=O)OC2CCCCC2=O)cc(OC)c1C (stereo not given)	0	4	-81	49	i	4	4	5
Cc1ccc(CCNC(=O)C2CCCN2S(=O)(=O)c2ccc3c(c2)CCC(=O)N3)cc1 (stereo not given)	2	-5	x	6	i	0	8	-6
COc1cccc(C(=O)C2CCCN(C(=O)c3cccc(C#CC(C)(C)O)c3)C2)c1 (stereo not given)	-1	-7	5	2	i	-7	-3	-18

Looked up by structure from above (three):
SMILES	MT1-MMP act inh	MT1-MMP act inh RFP	Env fusion inh	Yeast UUG start	Rce1 inhib	eIF4H FP inh	PABP polyA inh	CSC inhib
Cc1ccn2c(Nc3ccccc3)c(-c3ccccn3)nc2c1	10	-16	66*	-38	i	4	-14	81*
Cc1nn(-c2ccccc2)c(C)c1NC(=O)COC(=O)CCOc1ccccc1	2	4	-1	-12	i	x	x	0
Cc1ccc(CCNC(=O)C2CCCN2S(=O)(=O)c2ccc3c(c2)CCC(=O)N3)cc1 (stereo not given)	2	-5	x	6	i	0	8	-6

Continuation.
SMILES	MT1-MMP act inh	MT1-MMP act inh RFP	Env fusion inh	Yeast UUG start	Rce1 inhib	eIF4H FP inh	PABP polyA inh	CSC inhib
COc1cc(/C=C2/SC(=S)N(CC(=O)Nc3nc4ccccc4s3)C2=O)cc(OC)c1OC	7	7	x	21	x	24	14	-7
O=C(NCC1CCCO1)C1CC(=O)N(C2CCCC2)C1 (stereo not given)	-2	-3	-19	-14	i	-9	0	1
Cc1ccc(C)c(NC(=O)C2CC3CCC2C3)c1 (stereo not given)	-1	-2	-4	7	i	-4	8	-8
Cc1nc2cc(F)ccc2n1C1CCN(S(=O)(=O)c2ccccc2)CC1	-7	-12	-41	-2	i	-2	14	x
CC1CCCN(C(=O)CSc2cnc3ccccc3n2)C1 (stereo not given)	-4	1	x	-8	i	0	1	x
CSc1ccccc1NC(=O)C1=CC(c2cccs2)=NS(=O)(=O)N1C	2	2	-9	-5	i	4	-1	x
COc1ccc(C(=O)Nc2c(C)csc2C(=O)O)cc1	0	3	0	x	i	-1	5	-7
COc1ccc(C(=O)c2coc3ccc(O)c(CN(C)C)c23)cc1	0	7	1	-2	i	-11	-4	-16
COc1ccc(S(=O)(=O)N(C)C)cc1NC(=O)COC(=O)C1CC1	2	4	-11	-8	x	x	x	-11
Cc1ccc(Cn2c(NC(=O)c3ccco3)nc3ccccc32)cc1	0	-3	x	-22	i	-3	-5	11
COCCn1c(SCc2cccnc2)nnc1-c1c[nH]c2ccccc12	2	-1	-19	-29	i	-7	-5	-8
COc1ccc(CN(C)C(=O)c2ccc(NS(=O)(=O)c3ccc(C)c([N+](=O)[O-])c3)cc2)c(OC)c1OC	2	-10	x	-48	i	x	x	11
Cc1ccc(CN(CC(=O)N/N=C/c2ccco2)S(=O)(=O)c2ccc(C)cc2)cc1	-1	0	x	-12	i	2	8	-3
COc1ccc(Br)cc1CN1CCCC(C(=O)N2CCCCC2)C1 (stereo not given)	2	4	-7	x	i	0	19	-6
O=C(N/N=C/c1ccc([N+](=O)[O-])cc1)c1cccc(N2CCCC2=O)c1	0	-3	-3	-7	i	-2	5	1
Cc1cc(NC(=S)N(CCCN2CCOCC2)Cc2ccco2)ccc1Cl	2	1	0	-33	i	-3	0	-8

Compound activity from PubChem.
